From PubChem
GLA inh pH 4.5: qHTS Assay for Inhibitors of Human alpha-Galactosidase at pH 4.5; 230,000 tested, under 10 active; purified enzyme, 4-MU-alpha-Gal fluorescence, pH 4.5; activity change, negative = inhibition, % at 105 µM; Alpha-galactosidase A (Homo sapiens), P06280; inconclusive = small, poorly fitted or top-dose-only inhibition, or a rising curve; inactive = flat fitted curve, though single readings scatter; no compound was filed as active;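 also: 0% = full activity with enzyme and -100% = basal without enzyme; dose as in the result columns while the protocol names 77 µM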
miR-21 FLuc: qHTS Assay for Modulators of miRNAs and/orActivators of miR-21 | HeLa miR-21 FLuc reporter, luciferase, 48 h | Potency, µM (doses to about 38.3 µM), without a hit: at the highest dose reporter change, positive = more light | 340,000 tested, under 10 active; active = well fitted rising curve with a large enough effect; inconclusive = small, poorly fitted or top-dose-only effect; inactive = no such curve, though single readings can be large or run the other way;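 also: % of control where 0% means no effect; miR-21 action dims this reporter so a rising signal means less miR-21 action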
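HeLa cells endogenously expressing miR-21, stably carrying CMV-driven firefly luciferase with a downstream miR-21 binding site, 2000 cells/well. Titrations up to approximately 40 uM, 48 hours; luciferase luminescence read.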
Rango complex inh: qHTS Assay for Inhibitors of Rango (Ran-regulated importin-beta cargo) - Importin beta complex formation. Rango CFP/YFP FRET sensor + importin beta, 45 min. Importin subunit beta-1 (Homo sapiens), Q14974. AID 540263, 2011. hit rate 0.031% among 340,000. Potency, µM (doses to about 92.2 µM), inactives show at the top dose inhibition of complex formation; active = rising FRET ratio curve, often small or poorly fitted; inconclusive = mostly compound fluorescence or quenching in the first reads; inactive = flat curves in all reads;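 also: potency is read from the fitted curve at half-maximal effect; 0% = DMSO wells and 100% = buffer wells lacking importin beta; nearly all actives have a fitted effect of over 15% in size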
Target sequence (Q14974 whole entry, looked up): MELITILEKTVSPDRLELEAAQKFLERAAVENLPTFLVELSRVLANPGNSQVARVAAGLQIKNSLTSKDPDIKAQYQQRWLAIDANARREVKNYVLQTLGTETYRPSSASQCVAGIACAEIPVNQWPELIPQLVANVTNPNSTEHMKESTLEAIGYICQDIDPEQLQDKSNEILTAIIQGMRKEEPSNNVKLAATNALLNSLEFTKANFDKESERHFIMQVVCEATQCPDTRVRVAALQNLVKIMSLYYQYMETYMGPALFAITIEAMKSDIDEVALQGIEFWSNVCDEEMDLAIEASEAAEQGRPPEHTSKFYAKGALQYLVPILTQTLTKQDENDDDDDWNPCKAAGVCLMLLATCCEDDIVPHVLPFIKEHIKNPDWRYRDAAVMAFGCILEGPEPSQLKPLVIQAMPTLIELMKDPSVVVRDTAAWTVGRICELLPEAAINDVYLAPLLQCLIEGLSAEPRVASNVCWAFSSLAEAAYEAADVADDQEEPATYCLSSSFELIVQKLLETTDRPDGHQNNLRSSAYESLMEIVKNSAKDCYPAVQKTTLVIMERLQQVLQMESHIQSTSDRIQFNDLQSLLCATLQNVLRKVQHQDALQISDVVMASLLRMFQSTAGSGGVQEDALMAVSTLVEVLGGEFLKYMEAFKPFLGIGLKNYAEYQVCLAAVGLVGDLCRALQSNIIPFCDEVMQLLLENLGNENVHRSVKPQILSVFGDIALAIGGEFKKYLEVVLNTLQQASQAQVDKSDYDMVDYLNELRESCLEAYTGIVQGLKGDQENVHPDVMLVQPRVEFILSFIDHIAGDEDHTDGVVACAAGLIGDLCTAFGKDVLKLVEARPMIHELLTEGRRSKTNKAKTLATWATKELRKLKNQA
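FRET biosensor (snurportin 1 IBB flanked by EYFP and cerulean), 50 nM, with compound 5 min, then 0.125 microM importin beta in PBS, 1 mM DTT, 0.02% Tween-20, 0.1% BSA. CFP/YFP ratio read after 45 min at room temperature; pre-read flags interference.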
Rango dissoc inh: qHTS Assay for Inhibitors of RanGTP induced Rango (Ran-regulated importin-beta cargo) - Importin beta complex dissociation | Snurportin-1 (Homo sapiens) + GTP-binding nuclear protein Ran (Homo sapiens) + Importin … | Biochemical FRET Rango-importin beta, RanGTP-induced dissociation | Potency, µM (series often up to 46.1 µM), inactives show top-dose activity change, negative = inhibition | hit rate 0.071% among 340,000 | AID 540253, 2011; active means falling FRET ratio curve, often poorly fitted, with flat reads before Ran was added; inconclusive means other falling curves, or compound fluorescence or quenching; inactive means flat or rising ratio curve;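 also: potency is read from the fitted curve at half-maximal effect; % of control where 0% means no effect; nearly all actives have a fitted effect of over 45% in size; -100% = wells without RanGTP and RCC1; the record marks most hits as doubtful in a second field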
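Rango (0.1 uM)–importin beta (0.25 uM) complex; RanGTP-RCC1 trigger; 45 min RT; CFP/YFP FRET read.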
Numbers without * were called inactive; ? = inconclusive; · = no result given; [ ] = remark or other dose. Some of the compounds tested; rates above refer to the full screens.

GLA inh pH 4.5	miR-21 FLuc	Rango complex inh	Rango dissoc inh	structure
26.9	-39.9%	-2.5%	7.3%	Clc1ccc(-c2cn3cccnc3n2)cc1
2.6	-0.5%	-0.7%	-0.6%	O=C(O)CSc1nnc(-c2ccncc2)n1C1CCCCC1
3.9	1.8%	-3.2%	-1.8%	CCOC(=O)C1CCN(Cc2cn[nH]c2-c2ccccc2)CC1
-2.9	-2.0%	3.3%	14.6%	C=CCn1cnc2c(nnn2-c2ccc(OC)c(OC)c2)c1=O
-4.7	1.0%	0.8%	11.4%	CCOC(=O)C1=C(C)C(c2ccc(OC)cc2)NC(=O)N1 (stereo not drawn)
·	·	0.4%	-4.2%	Cc1ccc(C(=O)Nc2ccccc2-c2ccccc2)cc1S(=O)(=O)Nc1ccccc1
·	·	5.5%	6.8%	Cc1ccc(OCC(=O)OCc2nc3scc(-c4ccccc4)c3c(=O)[nH]2)cc1C
-7.3	-3.7%	0.2%	?	CC(C)C(=O)N1CCC2(CC1)Oc1ccc(Cl)cc1C(=O)C21CC(c2cccnc2)=NO1 (stereo not drawn)

GLA inh pH 4.5	miR-21 FLuc	Rango complex inh	Rango dissoc inh	structure
2.0	2.3%	-3.2%	-10.8%	COC(=O)c1ccc(CNC(=O)c2cc3ccccc3oc2=O)cc1
2.0	-3.7%	1.4%	1.1%	CCOCCCN1CC(C(=O)NCCc2ccccc2)CC1=O (stereo not drawn)
7.2	-1.9%	-1.0%	2.0%	CNC(=O)CSc1nc2nc(C)cc(C)n2n1
5.4	0.1%	-1.1%	-14.5%	CCC(C)NC(=O)Nc1ccc(C)cc1C (stereo not drawn)
8.3	-13.1%	3.3%	6.6%	COc1ccc(NC(=O)CC(C)(C)C)c([N+](=O)[O-])c1
-21.9	-2.5%	1.8%	-0.4%	O=C1NN(c2ccccc2)C(=O)C2C1C1C=CC2C12CC2 (stereo not drawn)
-3.7	-1.4%	-1.0%	11.4%	CC(OC(=O)/C=C/c1cccs1)C(=O)Nc1ccc(S(N)(=O)=O)cc1 (stereo not drawn)
3.1	-7.1%	1.4%	-1.8%	CCc1nnc(NC(=O)CN2C(=O)c3ccccc3S2(=O)=O)s1

GLA inh pH 4.5	miR-21 FLuc	Rango complex inh	Rango dissoc inh	structure
2.5	-25.5%	1.4%	15.3%	Cc1cccc(-n2ncc3c(NCc4cccnc4)ncnc32)c1
·	0.6%	0.2%	5.2%	COc1ccc(Cc2nc3ccc(C(=O)NC(C)c4cnn(C)c4)cc3o2)cc1 (stereo not drawn)
-29.3	?	0.0%	-21.0%	O=C1CC(Sc2nnc(-c3ccccc3)o2)C(=O)N1c1ccccc1 (stereo not drawn)
1.5	-7.1%	3.0%	3.3%	CC1CCCN(CC(=O)Nc2cccc([N+](=O)[O-])c2)C1 (stereo not drawn)
-1.9	-6.0%	-2.4%	6.0%	C(=C\c1ccccc1)/CSc1nnc(-c2cccnc2)o1
-1.6	-18.2%	-3.8%	3.1%	Cc1nn(C)c(C(=O)N/N=C/c2cccc3ccccc23)c1Cl
-7.8	-2.8%	5.3%	-6.0%	O=C(CSc1ccc2c(c1)OCCO2)Nc1cccnc1
·	·	3.8%	-7.7%	COc1ccccc1C(=O)NC(=O)COC(=O)C1CCC1

GLA inh pH 4.5	miR-21 FLuc	Rango complex inh	Rango dissoc inh	structure
·	-0.8%	2.5%	-9.6%	CCc1ccc(N2CCN(CCNC(=O)Nc3ccc(OC)cc3)CC2)cc1
·	·	-0.3%	2.9%	O=C(c1ccc(S(=O)(=O)Nc2ccccc2F)cc1)N1CCN(c2ccccn2)CC1
-1.8[21.1 µM]	-0.7%	-4.1%	0.2%	Cc1c(C(=O)N2CCCC(C)C2)sc2ncnc(N3CCCCC3C)c12 (stereo not drawn)
14.9	5.1%	1.4%	-11.8%	O=C(/C(=C(\[O-])c1ccccc1)[n+]1ccc2ccccc2c1)c1ccc([N+](=O)[O-])cc1
·	16.6%	-1.3%	-0.5%	CCc1ccc(-c2cc(C)no2)cc1S(=O)(=O)N1CCOc2ccccc21
-0.1	0.0%	1.6%	-17.1%	CCOC(=O)c1c(C)[nH]c(C2=NNC(=Nc3ccc(OCC)cc3)SC2)c1C
·	·	-1.3%	3.2%	Cc1ccc([C@@H]2CC=C(C(=O)O)[C@H](c3cccc(Cl)c3)N2S(=O)(=O)c2ccc(C)cc2)cc1
·	·	3.5%	-6.0%	COc1ccc(NC(=O)CSc2nnc(-c3cccnc3)o2)c(OC)c1

GLA inh pH 4.5	miR-21 FLuc	Rango complex inh	Rango dissoc inh	structure
8.9	-0.5%	-4.7%	12.7%	COc1cc(C(=O)NC2CC(C)(C)NC(C)(C)C2)cc(OC)c1OC
7.1	0.4%	0.8%	-0.7%	O=C(NN1C(=O)/C(=C\c2cccnc2)SC1=S)c1ccco1
·	·	2.9%	11.6%	Cc1ccc(-c2csc(NC(=O)c3c(C)noc3C)n2)cc1
3.0	-0.5%	?	4.5%	COc1cc(C)c(Cl)cc1S(=O)(=O)n1ccnc1C
-4.8	-47.8%	3.5%	0.9%	Cc1ccc(OCCCOc2cccc3cccnc23)cc1C
·	-31.6%	0.1%	5.8%	O=C(Nc1ccc2ccccc2c1)c1ccc(Br)o1
4.7	-6.8%	-4.1%	2.5%	Cc1nnc(-c2cnn(C)c2N)n1CCCN(C)C
·	-49.0%	-3.3%	2.5%	Cc1nc(-c2ccc(NC(=O)Cc3ccccc3)cc2)cs1

GLA inh pH 4.5	miR-21 FLuc	Rango complex inh	Rango dissoc inh	structure
8.6	-0.8%	-1.9%	-8.7%	S=C1NCCOCCOCCOCCOCCN1
1.6	1.3%	1.3%	20.9%	CCC(=O)Nc1cccc(C2=NOC3(C2)C[C@H](C(N)=O)N(C(=O)Cc2ccc([N+](=O)[O-])cc2)C3)c1 (stereo partly drawn)
-3.4	-4.7%	6.0%	0.5%	CCOC(=O)c1c(NC(=S)Nc2ccc(OC)cc2)sc2c1CCCCC2
1.9	1.4%	-0.1%	0.5%	CCC(C)NC(=O)CSc1nc2cc3c(cc2c(=O)n1Cc1ccco1)OCO3 (stereo not drawn)
5.5	-9.1%	·	·	COc1cccc(-c2nnc3sc(-c4ccc(C)cc4)nn23)c1
-2.9	?	0.5%	37.3%	COc1ccc2[nH]c3c(N4CCC(O)(c5cccc(C(F)(F)F)c5)CC4)ncnc3c2c1
-2.3	-2.5%	-3.5%	16.3%	CN1CCN(Cc2nc3ccccc3c(=O)n2Cc2nc(-c3ccccc3F)cs2)CC1
-3.0	-40.2%	0.1%	6.6%	CCCCC(=O)NC(=S)Nc1cccc(C(=O)O)c1

GLA inh pH 4.5	miR-21 FLuc	Rango complex inh	Rango dissoc inh	structure
-6.4	-1.4%	0.0%	-4.9%	CCOC(=O)C1CCCN(C(=O)C2CCN(S(=O)(=O)c3cnc[nH]3)CC2)C1 (stereo not drawn)
9.2	-62.1%	0.0%	10.8%	CCCCCC(=O)N/N=C/c1ccc(N(C)C)cc1
4.7	0.8%	1.6%	13.8%	O=C(O)CC/C(=C\c1ccc(Cl)c([N+](=O)[O-])c1)c1nc2ccccc2s1
-5.6	16.8%	0.2%	0.3%	CCOC(=O)c1c(CSC(=N)N)n(C)c2cc(Br)c(OC(C)=O)cc12
·	0.0%	1.5%	-7.6%	CC(=O)N1c2ccc(S(=O)(=O)N(C)CC(=O)NC(C)c3ccccc3)cc2CC1C (stereo not drawn)
·	·	-0.6%	-1.6%	Cc1cccc(C)c1OCC(O)CN1CCc2ccccc2C1 (stereo not drawn)
·	-1.4%	-2.7%	26.6%	O=C(O)c1cccc(-n2c(/C=C/c3ccccc3)nc3ccccc3c2=O)c1
7.5	-4.8%	?	24.1%	COc1ccc(N(CC(=O)Nc2ccc3c(c2)OCO3)S(=O)(=O)c2ccccc2)cc1

GLA inh pH 4.5	miR-21 FLuc	Rango complex inh	Rango dissoc inh	structure
·	-9.3%	-3.3%	12.8%	O=C(Nc1cc(Cl)ccc1Cl)C1Cc2ccccc2O/C1=N\O (stereo not drawn)
·	2.4%	1.1%	-19.6%	Cc1cccc(C(=O)NC2CC3CCCC(C2)N3C(=O)Nc2ccccc2)c1 (stereo not drawn)
13.2	-12.5%	4.2%	27.3%	COc1ccc(-c2csc(-c3ccc(O)cc3)n2)cc1
-3.0	-2.9%	-1.8%	10.2%	COc1ccc2nc(C)c3c(c2c1)OC(C)C3 (stereo not drawn)
·	·	-2.1%	-2.8%	O=C(Nc1ccc(S(=O)(=O)C(F)F)cc1)c1ccc2c(=O)n3c(nc2c1)CCC3
0.4	3.9%	-0.9%	-6.0%	CCSc1nnc(CNC(=O)c2ccccc2F)n1-c1ccccc1OC
-1.0	-48.9%	1.5%	2.8%	Cc1ccc(-c2cc(-c3ccccc3C)[nH]n2)c(O)c1
·	·	0.2%	17.1%	COc1ccc(C(=O)O)cc1S(=O)(=O)Nc1ccccc1C(=O)NCc1ccc2c(c1)OCO2

GLA inh pH 4.5	miR-21 FLuc	Rango complex inh	Rango dissoc inh	structure
8.2	-15.2%	-0.5%	-0.1%	COc1cccc(-c2nnc(NC(=O)c3ccc(Cl)s3)o2)c1
-8.8	-2.6%	-3.2%	3.6%	O=C(c1ccccc1)N1CCN(c2n[nH]c(=O)[nH]c2=O)CC1
-27.3	-2.5%	·	·	Cc1ccc(N2C(=O)c3cccc4c(C(=O)O)ccc(c34)C2=O)cc1
·	-13.0%	-0.2%	-0.3%	CCC(C)c1ccc(NC(=O)c2c([N+](=O)[O-])cnn2CC)cc1 (stereo not drawn)
8.8	0.7%	3.9%	-0.5%	COC(=O)Cn1c(C)nc(=O)c(-c2ccccc2)c1C
-20.5	14.2%	3.4%	0.3%	c1ccc(-c2ccccc2OCCCN2CCCCCC2)cc1
·	-3.9%	-1.0%	0.9%	CCc1cc(=O)oc2cc(OCC(=O)NCc3ccccn3)ccc12
4.9	-4.2%	?	-0.5%	Cc1cc(C)c(C(=O)Nc2ccc(S(=O)(=O)Nc3onc(C)c3C)cc2)c(C)c1

GLA inh pH 4.5	miR-21 FLuc	Rango complex inh	Rango dissoc inh	structure
·	·	5.4%	-7.0%	Cc1cc(C(=O)OCC(=O)NCc2ccccc2)c2ccccc2n1
-0.5	2.0%	3.3%	7.8%	Cc1cccc(N2CCN(CC(O)COCc3cccs3)CC2)c1C (stereo not drawn)
-0.3	-2.6%	-3.9%	-1.8%	Cc1ccccc1Nc1cc(=O)oc2ccccc12
·	-30.9%	-1.1%	-8.6%	NC(=O)c1c(NC(=O)c2ccc(F)cc2Cl)sc2c1CCC2
·	-0.7%	-0.5%	6.6%	O=C(CCCCCNC(=O)N1CCn2c1nc1ccccc12)NCc1ccc(Cl)cc1
·	0.7%	-4.4%	23.9%	COc1ccc(CN2C(=O)c3cccnc3C2=O)cc1S(=O)(=O)N1CCCC(C)C1 (stereo not drawn)
-2.6	-13.4%	4.3%	5.2%	CCN(CC)CCCN=C(C)C1=C(O)c2ccccc2C1=O
